RN4220 kill: kills Staphylococcus aureus RN4220. 330,000 tested, 0.33% active. inhibition, % (concentration not given with the values). S. aureus RN4220 growth, OD600, 16 h;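 active means z-score of -3 or lower and OD600 up to 0.18 on both plates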;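 further: plate controls were untreated cells for no effect and reference antibiotic for full effect; stock transfer was 100 nL into about 80 µL; one replicate is shown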
Sa ugtP lethal: growth inhibition of S. aureus ugtP deletion strain | S. aureus RN4220 ugtP deletion, OD600 growth, 16 h; some inactives read as strong as hits | growth inhibition, % (concentration not given with the values) | 330,000 tested, 0.54% active | AID 1259309;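 active means z-score under -3 and OD600 up to 0.15 on both plates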;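 further: plate controls were untreated wells for no effect and antibiotic for full effect; wells of about 80 µL received 100 nL stock; the first replicate is given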
Mtb hypoxia inh: reduces hypoxia-regulated biosensor signal in M. tuberculosis. M. tuberculosis hypoxia-regulated fluorescent reporter, fluorescence. fluorescence inhibition, % (no concentration beside the values). 300,000 tested, 0.1% active. AID 1159583;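 active means 35 to 45% if threefold the growth effect, above 45% if 1.5-fold the growth effect; inactive means the rest, general growth blockers included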;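 further: wells of about 50 µL received 100 nL stock; 0% = vehicle wells and 100% = reference inhibitor wells; whole bacteria with a GFP reporter of the hypoxia response; strong numbers were not always called active; many hits fall short of the cut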
BJeLR lethal: BJeLR cell viability loss | BJeLR (HRASV12) viability, CellTiter-Glo ATP luminescence, 48 h; reference of the scale not given here | 300,000 tested, 0.17% active | AID 1554 | inhibition, % (no concentration beside the values);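 active means replicate mean above 50%; inconclusive means above 50% but judged a plate artefact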;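 further: 50 nL library stock added to about 25 µL; numbers are from one replicate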
Bead autofluor: compound fluorescence in toxin protease inhibitor counterscreen; compound autofluorescence counterscreen, microsphere flow cytometry; stronger effect = higher value; fluorescence intensity (no concentration beside the values); 360,000 tested, 3.1% active; AID 624483;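 active means at least 3 SD above the mean of all compounds, about 16000 in these data; inconclusive means too few beads counted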;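 further: 100 nL of 1 mM stock went into each well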
PrP 5UTR inh: suppresses PrP 5' UTR mRNA reporter expression | AID 488862 | cell-based PrP 5' UTR mRNA reporter, plate reader | inhibition, % (no concentration beside the values) | 340,000 tested, 0.35% active;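 active means every replicate at 50% or more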;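 further: 0 = median of the neutral control wells; tested in H4 reporter cells; numbers are from one replicate; inactives centre near -14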
Mtb hypoxia inh growth: also measured in Mtb hypoxia inh; calls as there; growth inhibition, %; measured here: M. tuberculosis growth (absorbance);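 0% = vehicle and 100% = reference antibiotic; read after six days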
The depositor's hits bear a star; ? = inconclusive; . = no result given.

Molecule,RN4220 kill,Sa ugtP lethal,Mtb hypoxia inh,Mtb hypoxia inh growth,BJeLR lethal,Bead autofluor,PrP 5UTR inh
Cc1ccc2c(c1)N(C(=O)NC1CCCCC1)C(C)(C)CC2C (configuration not stated),2.8,13.0,10.9,8.3,-9.3,7570,-36.8
O=C(NCCCC1CCCC1)C1CCC(=O)N(Cc2ccc(Cl)cc2)C1 (configuration not stated),-4.1,-3.1,2.5,0.4,-8.9,4389,-16.4
COc1cc(/C=N/NC(=O)c2ccoc2C)cc(OC)c1O,.,.,.,.,-9.9,8884,-8.8
CC(C)c1nc(Cl)c(C#N)c2c1COC(C)(C)C2,5.4,8.8,9.8,-5.0,0.1,3410,-9.0
CCOC(=O)C1CCCN(C(=O)CSc2nnnn2C)C1 (configuration not stated),3.5,2.1,7.2,5.3,.,.,-10.1
Cc1c(NS(=O)(=O)c2cccc(C(=O)NCc3ccncc3)c2)c(=O)n(-c2ccccc2)n1C,2.6,3.4,.,.,8.1,2726,-12.2
Cc1nc(NC(=O)c2cccnc2Cl)sc1C,2.3,-1.5,4.6,6.4,-1.3,6332,-85.9
Cc1cc(N)ccc1-c1cc2ccccc2oc1=O,1.4,10.7,12.4,2.7,-7.0,4422,-14.2
Cc1cc(NC(=O)CSCC(=O)N2CCN(c3ccccc3)CC2)no1,1.5,0.0,2.0,0.1,.,3461,-46.2
CCCC(=O)Nc1ccc(-c2ccc(NC(=O)CCC)cc2)cc1,3.4,1.5,0.2,3.6,4.0,2418,-12.1
O=C(CNC1CCCCC1)Nc1ccc(Cl)cc1,-0.6,-0.2,17.7,31.8,-8.0,3861,-15.9
Cc1cn(C(=O)C(C)N2C(=O)c3ccccc3C2=O)c(C)n1 (configuration not stated),8.8,-1.5,3.1,5.3,1.7,9607,-4.3
CN(C)S(=O)(=O)c1ccc2oc(SCC(=O)NCC(F)(F)F)nc2c1,7.5,12.4,-2.2,-4.5,-13.5,15478,-2.9
COc1ccccc1CCNC(=O)CCn1c(=O)c2cccn2c2ccc(F)cc21,0.3,-5.6,0.9,4.3,8.8,5554,-7.8
Cc1csc2ncc(C(=O)NCc3ccco3)c(=O)n12,2.6,10.6,6.1,6.5,-0.9,10947,-6.7

Some entries already given, reduced to BJeLR lethal, RN4220 kill and Sa ugtP lethal.
SMILES	BJeLR lethal	RN4220 kill	Sa ugtP lethal
CC(C)c1nc(Cl)c(C#N)c2c1COC(C)(C)C2	0.1	5.4	8.8
CCOC(=O)C1CCCN(C(=O)CSc2nnnn2C)C1 (configuration not stated)	.	3.5	2.1
Cc1c(NS(=O)(=O)c2cccc(C(=O)NCc3ccncc3)c2)c(=O)n(-c2ccccc2)n1C	8.1	2.6	3.4
Cc1nc(NC(=O)c2cccnc2Cl)sc1C	-1.3	2.3	-1.5

Next section
Molecule,RN4220 kill,Sa ugtP lethal,Mtb hypoxia inh,Mtb hypoxia inh growth,BJeLR lethal,Bead autofluor,PrP 5UTR inh
COc1ccc(N(C)S(=O)(=O)c2cccc(C(=O)OC(C)C(=O)NC3CCCCC3C)c2)cc1 (configuration not stated),3.5,-4.4,8.6,-3.0,-10.9,6242,-14.3
O=C(COc1ccccc1F)NCCc1ccc2c(c1)OCCO2,3.7,6.3,5.3,2.4,.,3670,-28.8
Cc1cc([N+](=O)[O-])ccc1NC(=O)C(C)N1CCN(c2ccccn2)CC1 (configuration not stated),3.9,12.3,2.4,2.4,-2.8,5107,-15.6
CCc1nc2ccccc2c(C(=O)OCC(=O)N2CC(C)OC(C)C2)c1C (configuration not stated),1.6,4.6,5.2,8.3,6.0,.,0.2
Cc1scc(C(=O)NNC(=S)NC(C)c2ccccc2)c1C (configuration not stated),2.3,6.2,-2.6,4.3,-6.8,2150,-15.5
N/C(=N\OC(=O)c1ccc(Cl)cc1)c1nonc1N,.,.,.,.,2.7,10615,-32.3
O=C(CCN1CCc2ccccc2C1)Nc1ccccc1F,2.0,2.6,.,.,-10.2,4580,-18.2
CCOc1ccccc1CNn1nnnc1N,5.6,-10.6,-2.2,10.9,0.8,?,-17.2
NC(=O)c1ccc(NC(=O)CSc2nnc(C3CC3)n2C2CC2)cc1,5.8,2.7,4.5,2.9,.,4246,-16.8
O=C(N/N=C1/C(=O)c2cccc3cccc1c23)c1ccc(Cl)cc1,.,.,.,.,-3.0,3335,-10.3
COc1ccccc1OCC(=O)n1cc(C(=O)c2cc(Cl)cc(Cl)c2O)cn1,4.1,3.2,-1.5,7.5,0.1,2384,-5.7
CCNC(=O)/C(C#N)=C/c1c(N2CCN(c3ccc(OC)cc3)CC2)nc2c(C)cccn2c1=O,-2.2,13.5,-4.7,-1.5,-4.4,3824,-26.8
CO/N=C/Cc1c([N+](=O)[O-])c(C)nn1C,.,.,.,.,4.6,4646,2.5
Cc1ccc(-c2cc(-c3ccccc3)c(C#N)c(Br)n2)cc1,11.2,-21.8,4.3,4.5,-1.2,2021,-3.3
Cc1ccc(C)c(S(=O)(=O)N2CCCC2CNC(=O)C(=O)NC2CCCCCC2)c1 (configuration not stated),0.7,7.1,0.8,9.3,7.7,.,-8.9

Complete entries as entered above. Values in the order: RN4220 kill | Sa ugtP lethal | Mtb hypoxia inh | Mtb hypoxia inh growth | BJeLR lethal | Bead autofluor | PrP 5UTR inh
Cc1ccc(-c2cc(-c3ccccc3)c(C#N)c(Br)n2)cc1 as listed: 11.2 | -21.8 | 4.3 | 4.5 | -1.2 | 2021 | -3.3
COc1ccc(N(C)S(=O)(=O)c2cccc(C(=O)OC(C)C(=O)NC3CCCCC3C)c2)cc1 (configuration not stated) as listed: 3.5 | -4.4 | 8.6 | -3.0 | -10.9 | 6242 | -14.3
CCNC(=O)/C(C#N)=C/c1c(N2CCN(c3ccc(OC)cc3)CC2)nc2c(C)cccn2c1=O as listed: -2.2 | 13.5 | -4.7 | -1.5 | -4.4 | 3824 | -26.8

(next part)
Molecule,RN4220 kill,Sa ugtP lethal,Mtb hypoxia inh,Mtb hypoxia inh growth,BJeLR lethal,Bead autofluor,PrP 5UTR inh
O=[N+]([O-])c1ccc(O)c(C=NNc2ccccc2Cl)c1,53.7,10.6,2.6,3.9,.,.,.
CC(C)C(OC(=O)C1=Cc2ccccc2OC1)C(=O)NC1CCCC1 (configuration not stated),3.6,2.3,-1.4,-0.3,-12.9,2964,-8.0
CN1CCN(C(=S)c2ccc(-c3cc(Cl)ccc3Cl)o2)CC1,0.6,-2.7,7.6,14.5,-5.7,3375,-18.4
CCSc1nc2ccccc2n1CCC(=O)O,2.8,4.6,.,.,3.9,5644,-10.2
c1ccc(C(OCCN2CCN(c3ncccn3)CC2)c2ccccc2)cc1,1.4,20.0,5.3,8.8,2.3,.,-11.5
CCC(C)(C)C(=O)Nc1cc([N+](=O)[O-])ccc1F,3.1,5.1,6.3,7.8,-5.1,2105,-14.5
CCOC(=O)Cn1c2[n+](c3ccccc31)CC(O)CS2 (configuration not stated),3.6,5.6,-0.4,3.8,-4.7,10517,-25.1
CCN(CC)S(=O)(=O)c1ccc(OC)c(NC(=O)c2cccs2)c1,11.0,54.0,17.9,-6.3,-7.9,4137,3.2
CCOC(=O)CSc1nc2cc(C(=O)NCc3ccco3)ccc2c(=O)n1-c1ccc(F)cc1,2.2,-5.2,3.0,7.7,-5.8,10150,-2.0
O=C(CNc1ccccc1F)Nc1cccc2ccccc12,1.6,6.0,-0.3,4.6,-8.7,3728,-16.1
CC(C)CCNC(=O)C1c2ccccc2Oc2ccccc21,-0.1,-4.5,-3.3,-4.0,-3.8,4330,-30.0
O=C(C/C=N\OCc1c(Cl)cccc1Cl)Oc1ccc(Cl)cc1Cl,.,.,.,.,-7.2,2887,-12.8
O=C(N/N=C/c1ccc(OCC(=O)N2CCCC2)cc1)C(=O)NC1CC1,.,.,.,.,1.7,5466,-12.9
Cc1ccc(N(C(=O)CCCC(=O)Nc2ccccn2)C(C(=O)NC2CCCC2)c2ccc(O)cc2)cc1C (configuration not stated),0.3,-0.1,7.4,1.6,-9.3,4210,1.5
N#C/C(=C\c1ccncc1)c1nc2ccccc2c(=O)[nH]1,3.6,3.9,-1.3,13.8,5.1,3302,-15.3

Ordered by molecular weight (smallest number first): six of the compounds above.
Molecule,RN4220 kill,Sa ugtP lethal,Mtb hypoxia inh,Mtb hypoxia inh growth,BJeLR lethal,Bead autofluor,PrP 5UTR inh
N#C/C(=C\c1ccncc1)c1nc2ccccc2c(=O)[nH]1,3.6,3.9,-1.3,13.8,5.1,3302,-15.3
CCOC(=O)Cn1c2[n+](c3ccccc31)CC(O)CS2 (configuration not stated),3.6,5.6,-0.4,3.8,-4.7,10517,-25.1
CC(C)CCNC(=O)C1c2ccccc2Oc2ccccc21,-0.1,-4.5,-3.3,-4.0,-3.8,4330,-30.0
CN1CCN(C(=S)c2ccc(-c3cc(Cl)ccc3Cl)o2)CC1,0.6,-2.7,7.6,14.5,-5.7,3375,-18.4
O=C(N/N=C/c1ccc(OCC(=O)N2CCCC2)cc1)C(=O)NC1CC1,.,.,.,.,1.7,5466,-12.9
Cc1ccc(N(C(=O)CCCC(=O)Nc2ccccn2)C(C(=O)NC2CCCC2)c2ccc(O)cc2)cc1C (configuration not stated),0.3,-0.1,7.4,1.6,-9.3,4210,1.5

(listing goes on)
Molecule,RN4220 kill,Sa ugtP lethal,Mtb hypoxia inh,Mtb hypoxia inh growth,BJeLR lethal,Bead autofluor,PrP 5UTR inh
Cc1ccccc1C(=O)NCC(=O)OC(C)C(=O)Nc1ccnn1C(C)C (configuration not stated),1.8,1.1,5.3,11.3,-4.6,.,-25.8
CCOC(=O)C1CCCN(Cc2ccc(OC)c(OCc3ccccc3)c2)C1 (configuration not stated),5.0,2.9,-3.8,3.5,4.5,3864,-31.4
COC(=O)C1(Cc2ccc(O)cc2)OC(=O)C(O)=C1c1ccc(O)cc1 (configuration not stated),1.8,-7.1,.,.,-3.1,5752,-24.8
Cc1ccc(NC(=O)Cc2noc3ccccc23)c(C)c1,2.8,9.2,12.3,12.0,-3.7,2051,-8.7
O=C1CC(c2ccco2)Cc2nc(Nc3ccc(F)cc3)ncc21 (configuration not stated),2.0,-3.9,.,.,8.6,2691,-12.5
COc1ccc(-c2cc(=O)oc3c(C)c(OCC(=O)NCCCn4ccnc4)ccc23)cc1,0.2,-1.9,.,.,1.2,5540,-11.8
O=C(CCc1ccccc1)NNC(=O)c1ccccc1Br,6.3,5.3,12.8,6.1,-1.2,2430,-10.8
CC(C)CN(C(=O)CCCOc1ccc(Cl)cc1Cl)c1c(N)n(Cc2ccccc2)c(=O)[nH]c1=O,-1.5,-1.2,-2.0,1.5,1.7,5801,-24.6
COc1ccc(OC)c(N(CC(=O)N2CCN(c3cc(Cl)ccc3C)CC2)S(C)(=O)=O)c1,8.3,11.6,8.6,9.3,-5.5,7209,-7.0
O=c1cc(NCc2ccc3c(c2)OCO3)[nH]c(=O)n1-c1ccc(Cl)cc1,5.3,-0.1,4.7,-0.5,.,9616,-11.5
Cc1cccc(OCC(O)CN2CC3(C)CC2CC(C)(C)C3)c1 (configuration not stated),0.1,2.7,-15.6,3.7,-2.7,2402,-1.9
CC(C)(C)c1ccc(C(=O)NCCC(=O)N2CCCC2)cc1,3.5,8.9,3.8,-3.3,0.8,5829,-60.1
COc1cc2cc(CN(C(=O)NC3CCCCC3)C3CCCC3)c(=O)[nH]c2cc1OC,4.5,-2.5,9.9,7.4,-4.3,2367,-7.9
C=C(C)Cn1c(N2CCCC2)nc2c1c(=O)n(C)c(=O)n2C,1.8,-2.9,-3.0,9.0,-5.5,3761,-3.2
c1ccc(-c2cc(-c3ccccc3)[nH]n2)cc1,0.7,-22.6,-0.1,-3.5,-4.2,2999,-88.2

Source: PubChem (several laboratories)
